Rango-impB inh = Rango-importin beta binding inhibition | 0.031% of 340,000 active | AID 540263 | Rango CFP/YFP FRET sensor + importin beta, 45 min | Q14974 | Potency, µM (doses to about 92.2 µM), for inactives: top-dose inhibition of complex formation; active = rising FRET ratio curve, often small or poorly fitted; inconclusive = mostly compound fluorescence or quenching in the first reads; inactive = flat curves in all reads;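 further: potency means the concentration at half of the fitted maximal effect; 0% = DMSO wells and 100% = buffer wells lacking importin beta; nearly all actives have a fitted effect of over 15% in size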
Target sequence (Q14974 whole entry, looked up): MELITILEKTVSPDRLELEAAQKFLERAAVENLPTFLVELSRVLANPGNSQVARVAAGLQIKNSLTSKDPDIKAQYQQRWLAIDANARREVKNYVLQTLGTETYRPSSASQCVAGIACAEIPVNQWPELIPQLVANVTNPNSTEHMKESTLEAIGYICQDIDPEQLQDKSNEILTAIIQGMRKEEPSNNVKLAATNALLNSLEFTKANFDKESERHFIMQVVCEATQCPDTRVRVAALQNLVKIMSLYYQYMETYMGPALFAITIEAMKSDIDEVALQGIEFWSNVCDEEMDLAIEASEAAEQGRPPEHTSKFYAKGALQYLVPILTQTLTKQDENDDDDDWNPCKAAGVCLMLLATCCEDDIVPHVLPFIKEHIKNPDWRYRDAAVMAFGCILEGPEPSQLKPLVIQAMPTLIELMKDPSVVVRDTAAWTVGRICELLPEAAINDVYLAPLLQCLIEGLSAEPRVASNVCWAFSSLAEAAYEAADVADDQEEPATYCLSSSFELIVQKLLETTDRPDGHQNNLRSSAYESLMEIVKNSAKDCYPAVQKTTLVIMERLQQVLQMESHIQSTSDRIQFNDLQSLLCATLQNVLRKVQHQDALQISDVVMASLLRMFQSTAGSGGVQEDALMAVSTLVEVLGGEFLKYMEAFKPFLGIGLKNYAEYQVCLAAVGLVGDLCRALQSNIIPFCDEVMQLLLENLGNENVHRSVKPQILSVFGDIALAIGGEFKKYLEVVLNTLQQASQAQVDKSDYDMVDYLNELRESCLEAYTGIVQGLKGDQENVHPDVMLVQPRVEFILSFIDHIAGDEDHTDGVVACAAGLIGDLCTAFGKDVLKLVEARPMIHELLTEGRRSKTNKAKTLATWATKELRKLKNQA
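FRET biosensor (snurportin 1 IBB flanked by EYFP and cerulean), 50 nM, with compound 5 min, then 0.125 microM importin beta in PBS, 1 mM DTT, 0.02% Tween-20, 0.1% BSA. CFP/YFP ratio read after 45 min at room temperature; pre-read flags interference.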
GLA inh pH 4.5 = inhibitors of human alpha-galactosidase A at pH 4.5 | P06280 | purified enzyme, 4-MU-alpha-Gal fluorescence, pH 4.5 | activity change, negative = inhibition, % at 105 µM | 230,000 tested, under 10 active | AID 1467; inconclusive = small, poorly fitted or top-dose-only inhibition, or a rising curve; inactive = flat fitted curve, though single readings scatter; no compound was filed as active;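 further: 0% = full activity with enzyme and -100% = basal without enzyme; dose as in the result columns while the protocol names 77 µM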
Rango release inh = inhibitors of RanGTP-induced Rango-importin beta complex dissociation | O95149+P62826 | Biochemical FRET Rango-importin beta, RanGTP-induced dissociation | Potency, µM (doses to about 46.1 µM), without a hit: top-dose activity change, negative = inhibition | 0.071% of 340,000 active | AID 540253; active means falling FRET ratio curve, often poorly fitted, with flat reads before Ran was added; inconclusive means other falling curves, or compound fluorescence or quenching; inactive means flat or rising ratio curve;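 further: potency means the concentration at half of the fitted maximal effect; % of control where 0% means no effect; nearly all actives have a fitted effect of over 45% in size; -100% = wells without RanGTP and RCC1; the record marks most hits as doubtful in a second field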
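Rango FRET biosensor (snurportin-1 IBB flanked by N-terminal EYFP and C-terminal CFP10) at 0.1 uM, with 0.25 uM importin beta in PBS, 1mM DTT, 0.02% Tween-20, 0.1% BSA. 0.6 uM Ran, 2mM GTP and 0.2 uM RCC1 were then added for 45 min at room temperature. Inhibition read as loss of FRET rise.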
miR-21 FLuc = miR-21 reporter, rising signal; HeLa miR-21 FLuc reporter, luciferase, 48 h; Potency, µM (doses to about 38.3 µM), without a hit: top-dose reporter change, positive = more light; 340,000 tested, under 10 active; active = well fitted rising curve with a large enough effect; inconclusive = small, poorly fitted or top-dose-only effect; inactive = no such curve, though single readings can be large or run the other way;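 further: % of control where 0% means no effect; miR-21 action dims this reporter so a rising signal means less miR-21 action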
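HeLa cells endogenously expressing miR-21, stably carrying CMV-driven firefly luciferase with a downstream miR-21 binding site, 2000 cells/well. Titrations up to approximately 40 uM, 48 hours; luciferase luminescence read.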
* marks the source's active call; other numbers are inactive results; u = inconclusive; x = no result given; & = joins results of further samples; [ ] = dose if it differs, or a comment.

Every second line gives: Rango-impB inh	GLA inh pH 4.5	Rango release inh	miR-21 FLuc
CCOC(=O)c1sc(NC(=S)NC(=O)C23CC4CC(CC(C4)C2)C3)cc1C
 : -2.9%	-8	28%	-4%
Cc1cccc(NC(=O)c2cc(-c3cc(C)c(C)cc3O)n[nH]2)c1
 : 0.5%	x	0%	-74%
CSc1nc(C)c(C(=O)C[n+]2ccccc2C)cc1C#N
 : 4.0%	2	0%	-14%
C=C(C)C1CC=C(C)/C(=N/NC(=O)c2ccc(NC(=O)CCC)cc2)C1 (stereo unspecified)
 : 1.3%	4	7%	-11%
CC(=O)Nc1cc(C(=O)N2CCCC2)ccc1S(=O)(=O)c1ccc(C)cc1
 : -0.5%	16	-7%	-5%
CC(=O)Nc1ccc(C(=O)NCC(c2ccco2)N(C)C)cc1 (stereo unspecified)
 : 0.1%	x	-2%	x
O=C(Nc1cccc(-c2ccc(N3CCCCC3)nn2)c1)c1ccco1
 : 1.0%	x	-4%	x
O=C(COC(=O)c1ccccc1O)NCCCc1ccccc1
 : 0.6%	-24	3%	-5%
C=C(C)Cn1c(N2CCCC2)nc2c1c(=O)[nH]c(=O)n2C
 : -1.2%	5	-2%	-5%
CCOC(=O)C1CCCN(Cc2ccc(OCc3ccccc3)c(OC)c2)C1 (stereo unspecified)
 : 1.8%	x	-1%	-14%
CCCc1nnc(NC(=O)CCC(=O)NCc2ccccc2OC)s1
 : -0.7%	5	10%	-6%
CC(C)CCC(CCNCc1ccccn1)c1ccc2c(c1)OCO2 (stereo unspecified)
 : 0.9%	x	5%	2%
CC(C)CN1C2CCCC1CC(NC(=S)NCc1ccco1)C2 (stereo unspecified)
 : -3.8%	4	1%	-1%
C=CCn1c(P(C)(=O)O)nc2ccccc21
 : 11%&2.6%	-5&10	1%&5%	-1%&-2%
Cc1c(Cl)cccc1NC(=O)c1cc(S(=O)(=O)N2CCOCC2)cn1C
 : 2.5%	x	-4%	0%
CC1CCCCC1NC(=O)c1ccc(S(=O)(=O)NCc2ccco2)cc1 (stereo unspecified)
 : -0.7%	-4	-4%	-5%
CCc1ccc(CN(C)Cc2nc(-c3cccc(Cl)c3)no2)nc1
 : -0.1%	-20	0%	-4%
O=S(=O)(Nc1nc2ccccc2nc1Nc1ccc2c(c1)OCO2)c1ccccc1
 : -11%	-3	-6%	-3%
CN(CC(=O)Nc1ccc(F)cc1)c1ccc(S(=O)(=O)N2CCCCC2)cc1[N+](=O)[O-]
 : 2.6%	-11	2%	15%
O=C(CSc1n[nH]c(-c2cccnc2)n1)Nc1ccccc1[N+](=O)[O-]
 : -1.4%	x	16%	10%
Cc1ccc2c(Cl)c(C(=O)NC3CC3)sc2c1
 : 1.6%	x	0%	-55%
O=C(NCCN1CCN(C(=O)c2ccccc2Cl)CC1)C(=O)NCc1ccccc1
 : 5.1%	x	-6%	3%
CC(NC(=O)Cc1ccc([N+](=O)[O-])cc1)c1ccc2c(c1)OCO2 (stereo unspecified)
 : u	4	17%	-1%
COC(=O)[C@H](CC(C)C)NC(=O)Cn1cnc2c(NCc3ccccc3)ncnc21
 : -2.3%	x	-1%	x
COc1ccccc1NC(=O)CSc1ccc(-c2ccc(-n3cccn3)cc2)nn1
 : u	x	-24%	x
CC[n+]1c(/C=C/c2ccc(OC(C)=O)c(OC)c2)ccc2ccccc21
 : 0.7%	x	-1%	-15%
O=C1C(=O)N(CC2CCCO2)C(c2ccco2)/C1=C(/O)c1ccc(F)cc1 (stereo unspecified)
 : -0.1%	-4	2%	1%
COC(=O)CCc1c(COC(C)=O)[nH]c(C(=O)OCc2ccccc2)c1C
 : u	x	u	-3%
COc1cc(C(=O)NCCc2ccc3c(c2)OCO3)cc(OC)c1OC
 : -1.8%	x	-9%	x
Cc1c(NC(=O)CCC2CCCCC2)cc(C(=O)N2CCOCC2)cc1[N+](=O)[O-]
 : 0.8%	-3	-7%	-2%
Cc1ccc2nc(NCCO)nc(-c3ccccc3)c2c1
 : u	6	u	7%
Nc1nnnn1CC(=O)OCc1cccc(Br)c1
 : 1.4%	3	-5%	0%
[N-]=[N+]=NC[C@H](Cc1ccccc1)N1CC[C@@H](O)CCC1=O
 : -2.5%	x	-6%	-1%
O=C1NCC(Nc2ccc(Cl)cc2)C(=O)N1 (stereo unspecified)
 : 0.5%	x	15%	x
COc1ccc(C(=O)CSc2nnc(-c3ccoc3C)n2CC2CCCO2)cc1 (stereo unspecified)
 : -0.6%	-2	-22%	-6%
O=S(=O)(c1ccccc1)N1CCC(N2CCN(c3ccccc3)CC2)CC1
 : x	5	x	-1%
Cc1cccc(-c2nc(CS(=O)CC(=O)NCCc3ccccc3)c(C)o2)c1 (stereo unspecified)
 : 0.6%	x	-10%	-6%
Cc1cccc(OCC(=O)N(Cc2cccs2)C2CCS(=O)(=O)C2)c1 (stereo unspecified)
 : -2.3%	-8	1%	-9%
O=C(CCC1CCCN(C(=O)c2ccc3c(c2)OCO3)C1)NCc1ccc(F)c(F)c1 (stereo unspecified)
 : 0.8%	2	0%	-25%
CC(C)N=C1SC(CC(=O)Nc2ccccc2)C(=O)N1C(C)C (stereo unspecified)
 : -0.6%	6	-3%	1%
COC(=O)/C=C1/SC(=NC(=O)c2ccccc2)NC1=O
 : 1.1%	4	3%	-4%
CCn1c(O)c(N=N)c2ccccc21
 : -1.4%	9	-16%	-6%
CCCCCN(C(=O)CCC(=O)OCC(=O)N(CC)C1CCCCC1)c1c(N)n(CCCC)c(=O)[nH]c1=O
 : 2.6%	x	-14%	x
Cc1ccc(N2C(=O)C3N=NN(CC(=O)N4N=C(c5ccccc5)CC4c4ccccc4)C3C2=O)cc1 (stereo unspecified)
 : u	-8	2%	-7%
COc1ccc(C/C(N)=N/OC(=O)Cc2ccccc2)cc1
 : 4.0%	1	-5%	-11%
Cc1c(/C=N\NC(=O)c2ccc(F)cc2)cnn1C
 : 1.5%	6	22%	-24%
CCOc1ccc(C(=O)NCCc2cnc[nH]2)cc1OCC
 : -1.1%	x	30%	1%
O=C(Cc1cccs1)N(Cc1cccs1)C1(C(=O)NC2CCCC2)CCCCC1
 : -1.7%	4	12%	1%
CC(=O)Nc1ccc(S(=O)(=O)N(C)CC(=O)OCC(=O)c2cc(C)n(-c3ccc4c(c3)OCO4)c2C)cc1
 : 1.0%	-2	25%	-11%
O=S(Cc1ccc(Br)cc1)Cc1nnc(SCc2ccc(Br)cc2)n1-c1ccccc1 (stereo unspecified)
 : 1.4%	-2	3%	20%

A second format for some results above:
SMILES: Cc1ccc(N2C(=O)C3N=NN(CC(=O)N4N=C(c5ccccc5)CC4c4ccccc4)C3C2=O)cc1 (stereo unspecified)
  Rango-impB inh = u
  GLA inh pH 4.5 = -8
  Rango release inh = 2%
  miR-21 FLuc = -7%

SMILES: COc1ccc(C/C(N)=N/OC(=O)Cc2ccccc2)cc1
  Rango-impB inh = 4.0%
  GLA inh pH 4.5 = 1
  Rango release inh = -5%
  miR-21 FLuc = -11%

SMILES: Cc1c(/C=N\NC(=O)c2ccc(F)cc2)cnn1C
  Rango-impB inh = 1.5%
  GLA inh pH 4.5 = 6
  Rango release inh = 22%
  miR-21 FLuc = -24%

SMILES: CCOc1ccc(C(=O)NCCc2cnc[nH]2)cc1OCC
  Rango-impB inh = -1.1%
  GLA inh pH 4.5 = x
  Rango release inh = 30%
  miR-21 FLuc = 1%

Going on with the list:
SMILES	Rango-impB inh	GLA inh pH 4.5	Rango release inh	miR-21 FLuc
CCc1nn(CC(=O)NCCCN2CCCC2=O)c(=O)c2cc3sccc3n12	-3.1%	0	15%	-9%
CCOC(=O)Cc1ccc(NC(=O)c2ccc(C(C)(C)C)cc2)cc1	0.5%	-10	1%	u
Cc1ccc(C(=O)CSc2nnc(-c3ccc4[nH]c(C)c(C)c4c3)o2)cc1C	0.9%	-5	-12%	-2%
CC(=O)c1cccc(NC(=O)N2CCCC2C(=O)Nc2cccc(C)c2C)c1 (stereo unspecified)	-3.9%	4	-18%	-3%
COCCCN1C(=O)C(O)=C(C(=O)c2ccco2)C1c1cccc(Br)c1 (stereo unspecified)	0.9%	-11	-1%	-6%
CCn1cc(CNC(=O)c2cccc([N+](=O)[O-])c2)c(C)n1	-0.1%	3	0%	2%
CCCC(=O)Nc1ccc(S(=O)(=O)N2CCOCC2)cc1	2.4%	-9	1%	-7%
COc1ccc(NC(=O)c2cc(C)nc3ccccc23)cc1S(=O)(=O)Nc1ccccc1Cl	-0.1%	-1	4%	-8%
COc1ccc(/C=C/C2=Nc3ccccc3NC(C)(C)C2)cc1OC	u	-2	1%	-35%
NS(=O)(=O)c1ccc(N2C(=O)C(=O)/C(=C(/O)c3ccccc3)C2c2ccc(Cl)cc2)cc1 (stereo unspecified)	-6.2%	-11	-14%	-5%
CCc1nnc(NC(=O)CCS(=O)(=O)c2ccccc2)s1	u	x	-3%	0%
CSc1nc(C)c(CCOCc2ccc(F)cc2)c(=O)[nH]1	-2.5%	2	9%	-1%
COc1ccc(N(C(=O)c2ccc(Cl)cc2)C2=CC3CCC(C2)N3C)cc1 (stereo unspecified)	0.2%	1	-2%	-5%
COC(=O)Nc1ncc(CN2C(=O)c3ccccc3C2=O)s1	-6.1%	4	-2%	-4%
Cc1csc(=O)n1CC(=O)Nc1nc2ccccc2s1	-3.2%	x	-9%	x
COCCNC(=O)C(c1ccc(F)cc1)N(Cc1cccs1)C(=O)CCC(=O)Nc1ccccn1 (stereo unspecified)	-2.6%	x	10%	1%
Cc1ccc(NC(=O)CSc2n[nH]c(-c3cccnc3)n2)c(Br)c1	2.6%	x	0%	-1%
COc1ccccc1NC(=O)NCCN1CCCCC1	-0.1%	x	10%	-1%
COc1cc2nc(C3CCC3)nc(N3CCN(c4ccccc4OC)CC3)c2cc1OC	3.9%	-8	8%	2%
CCCc1cc2c(c(NC(C)=O)n1)c(=O)oc1ccccc12	-0.7%	-4	5%	-22%
CC(C)(C)C1COc2ccccc2N1C(=O)c1cccc(Cl)c1 (stereo unspecified)	-1.6%	x	0%	-4%
Cc1nonc1NC(=O)CSc1nc2ccccc2[nH]1	-0.8%	3	-9%	1%
O=C1CC(c2cccc(Cl)c2)CC(O)=C1C=Nc1cccc(Cl)c1 (stereo unspecified)	2.7%	1	-15%	0%
O=C(CSc1cccc[n+]1[O-])c1ccc(Cl)cc1	-3.2%	3	31%	-13%
O=C(/C=C/c1ccccc1)Nc1cc(C(=O)O)cc(C(=O)O)c1	-0.1%	10	16%	-4%
CC(C)(C)C(=O)CSc1nnc(Nc2ccccc2)s1	-3.1%	-10[21.1 µM]	21%	-57%
O=C(NNC(=O)c1ccccc1OCc1ccccc1)c1ccccc1F	4.8%	x	13%	-46%
CCOC(=O)Cc1cc(=O)[nH]c(/N=C(\N)Nc2ccc(C)cc2C)n1	-0.1%	1	0%	0%
Cn1nc(C(F)(F)F)c2cc(C(=O)Nc3ccc(F)cc3)sc21	-0.2%	1	4%	4%
CC(C)S(=O)(=O)c1csc(NC(=O)Nc2cccc([N+](=O)[O-])c2)c1Cl	-2.3%	-4	4%	-1%
COC(=O)c1cc2n(n1)CCCNC2=O	-0.5%	6	-1%	0%

High-throughput results from PubChem.

An excerpt; the hit share may differ from the screen's.
